CBX7 AlphaScr: CBX7 chromodomain binding inhibitors, primary screen, biochemical, AlphaScreen. 66,000 compounds, 1.1% hits. Chromobox protein homolog 7 (Homo sapiens), O95931. AID 1224903, 2016. normalised signal (fraction of DMSO) (no concentration beside the values). AlphaScreen His6-CBX7 / biotin-H3K27me3 peptide binding; hits give low values; in the data active means normalised signal below about 0.5;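 further: 100 nL library stock added to about 20 µL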
Target sequence (O95931 whole entry, looked up): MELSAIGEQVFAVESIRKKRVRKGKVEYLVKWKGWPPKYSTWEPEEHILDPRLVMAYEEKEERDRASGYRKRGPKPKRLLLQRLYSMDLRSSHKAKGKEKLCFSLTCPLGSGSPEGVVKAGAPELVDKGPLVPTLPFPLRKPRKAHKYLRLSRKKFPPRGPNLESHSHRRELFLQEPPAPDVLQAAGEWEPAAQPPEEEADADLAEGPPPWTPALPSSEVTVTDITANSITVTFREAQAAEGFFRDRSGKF
CBX7 AlphaScr z-score: recorded beside CBX7 AlphaScr, whose call it bears; z-score; measured here: z-score of CBX7 signal; some inactives read as strong as hits; reference of the scale not given here;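 same signal on another scale; lower means less binding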
Starred values were filed as active, the others as inactive; & = joins results of further samples; ! = repeats disagree.

Fields – CBX7 AlphaScr	CBX7 AlphaScr z-score
- Cc1ccc(C)c(NC(=O)c2csc3c2CCCCC3)c1
  1.07	2.54
- Cc1ccccc1C(=O)N1CC(=O)Nc2ccc(Cl)cc2C1c1ccccc1 (stereo not given)
  0.96	-0.389
- CCOC(=O)N1CCC(NC(=O)c2csc3c2CCCCC3)CC1
  0.991	-0.278
- Cc1ccc(-c2nc3ncccc3o2)cc1NC(=O)c1ccc(OC(C)C)cc1
  1.12	1.29
- CC(C)OCCCNC(=O)c1cc(Nc2cccc(C(F)(F)F)c2)nc2ccccc12
  1.13	2.62
- c1ccc(-c2csc3ncnc(Sc4ccc5c(c4)OCCO5)c23)cc1
  1.03	0.0333
- CCC1CCCCN1S(=O)(=O)c1ccc(C(=O)Nc2nnc(COC)o2)cc1 (stereo not given)
  0.727	-7.33
- O=C(NCc1ccc(F)cc1)C1CCN(c2nnc(-n3cccc3)s2)CC1
  1.16	1.7
- Cc1ccc(-c2nc3ccccc3o2)cc1NC(=O)c1cccc(Br)c1
  0.993	-0.241
- FC(F)(F)c1cc(-c2ccco2)nc(-n2cncn2)n1
  1.01	0.189
- CCOc1ccc(-n2c(O)cnc2Nc2nc(C)cc(C)n2)cc1
  1.03	0.228
- CCCN1CCN(C(=O)c2cn(CC)c(=O)c3cc(OC)c(OC)cc23)CC1
  1.02	0.628
- O=C1CCc2cc(S(=O)(=O)NC(Cc3ccccc3)C(=O)NC3CCCCC3)ccc2N1 (stereo not given)
  0.978	-0.42
- CC(=O)Nc1ccc(NC(=O)c2ccc3c(c2)NC(=O)c2ccccc2S3)cc1
  1.04	1.12
- CCC(C)NC(=O)c1cc(Nc2ccc(C(C)C)cc2)nc2ccccc12 (stereo not given)
  1.14	0.138
- CC(=O)c1c(C)oc2ccc(OCCN3CCCCC3)cc12
  1.01	0.0593
- Cc1ccc(NC(=O)c2oc3ccc(S(=O)(=O)N4CC(C)CC(C)C4)cc3c2C)c(C)c1 (stereo not given)
  1.05	1.8
- COc1ccc(-c2nc(SCC(=O)Nc3ccc(F)cc3)c(-c3ccccc3)[nH]2)cc1
  0.982	-0.845
- O=C(NCC1COc2ccccc2O1)c1cc(-c2cccnc2)nc2ccccc12 (stereo not given)
  0.929	-1.34
- N#Cc1nc(COc2cccc(Cl)c2)oc1N1CCCCCC1
  0.448*	-3.45*
- Cc1c(C(=O)NCCN(C)C)sc2nc(-c3ccccc3)cn12
  1.02	0.497
- O=C(CCn1nc(-c2ccccc2)ccc1=O)NCCN1CCCCCC1
  1.32	0.655
- Cc1ccc(-c2nc(NC(=O)CSc3ncn[nH]3)ns2)cc1
  0.942	-0.752
- Cc1ccc(-c2nc3ncccc3o2)cc1NC(=O)c1ccc(C#N)cc1F
  1	-0.00274
- CCC(=O)N1CCc2cc(S(=O)(=O)NCc3ccc(OC)cc3)ccc21
  1.33	1.33
- COc1cccc(C2=NOC(C(=O)Nc3cccnc3Cl)C2)c1OC (stereo not given)
  1.02	0.803
- CCCOc1ccc(C(=O)Nc2c(C(=O)c3ccc(Br)cc3)oc3ccccc23)cc1
  1.27	1.81
- Cc1c(C(=O)NCCN2CCOCC2)oc2ccc(S(=O)(=O)N3CCCCC3)cc12
  0.861	-1.91
- CCOC(=O)c1c(NC(=O)Cc2ccc(OCC)c(OCC)c2)sc2c1CCCCC2
  1.02	0.185
- Cc1cc(Cl)ccc1OCCc1c(C)n[nH]c1C
  0.972	-0.545
- CC(C)OCCCNC(=O)C1=CCN(S(=O)(=O)c2ccc(F)cc2)CC1
  0.972	-1.34
- O=C(Nc1ccc2oc(-c3ccc(F)cc3)nc2c1)c1ccc2ccccc2c1
  1.05	2.1
- Cc1c(C(=O)N2CCCCC2)oc2ccc(S(=O)(=O)N3CC(C)CC(C)C3)cc12 (stereo not given)
  0.989	-0.115
- COCCNC(=O)c1cc(-c2cccc(Cl)c2)on1
  1.05	1.36
- CCOc1cc2c(cc1OCC)C(c1cccc(Cl)c1)NCC2 (stereo not given)
  1.08	0.397
- O=C(Nc1ccccn1)c1nc[nH]c1C(=O)O
  0.296*	-7.96*
- COc1ccc(CCNC(=O)CN2CCN(Cc3cccc(C)c3)C2=O)cc1OC
  1.03	1.24
- Cc1cc(C)cc(OCc2nc(-c3ccc(Br)cc3)no2)c1
  1.72	10.5
- COc1ccc(C(=O)Nc2nnc(C(C)C)s2)cc1
  1.05	0.431
- CCN1C(=O)CSc2ccc(C(=O)NCCN3CCOCC3)cc21
  0.978	-0.584
- O=C(Cn1ccc2ccccc2c1=O)NCCC(=O)Nc1ccc(C(F)(F)F)cc1
  1.03	0.769
- COc1ccccc1NC(=O)c1c(NCc2cccs2)sc2c1CCC2
  1.02	0.191
- CCC(C)NC(=O)c1cc(-c2ccc(OC)c(OC)c2)on1 (stereo not given)
  1.33	2.55
- Cc1ccc(-c2noc(CN(C(=O)c3ccc(C)cc3C)C(C)C)n2)cc1
  0.771	-2.27
- Oc1ccccc1-c1nc(-c2ccc(F)cc2)c(-c2ccc(F)cc2)[nH]1
  0.7	-3.6
- CCCCN(CC)CCCNC(=O)c1c[nH]c2ccc(S(=O)(=O)N(CC)CC)cc2c1=O
  1.06	1.38
- COc1ccc(-c2noc(-c3ccccc3C)n2)cc1OC
  1.21	1.48
- FC(F)(F)c1cccc(Cn2nnc(-c3ccccc3)n2)c1
  1.44	6.09
- Cn1c(C(=O)N2CCCc3ccccc32)cc2sc(Cl)cc21
  0.885	-4.6
- COC(=O)Cc1nc(Nc2ccccc2)c2c(C)c(C)sc2n1
  1.05	1.01

Whole records, quoted from the list:
O=C(Nc1ccccn1)c1nc[nH]c1C(=O)O as listed: CBX7 AlphaScr = 0.296*; CBX7 AlphaScr z-score = -7.96*
CC(C)OCCCNC(=O)c1cc(Nc2cccc(C(F)(F)F)c2)nc2ccccc12 as listed: CBX7 AlphaScr = 1.13; CBX7 AlphaScr z-score = 2.62

Two neighbouring records already listed, for reference:
Fields – CBX7 AlphaScr	CBX7 AlphaScr z-score
- Cn1c(C(=O)N2CCCc3ccccc32)cc2sc(Cl)cc21
  0.885	-4.6
- COC(=O)Cc1nc(Nc2ccccc2)c2c(C)c(C)sc2n1
  1.05	1.01

(cont.)
Fields – CBX7 AlphaScr	CBX7 AlphaScr z-score
- COc1ccc(-c2nnc(Nc3ccc(Cl)cc3)c3ccccc23)cc1
  0.971	-0.549
- COc1ccc(Nc2cc(C(=O)NC3CC3)c3ccccc3n2)c(OC)c1
  0.865	-2.17
- Cc1ccc(C)c(Cn2c(CN3CCOCC3)nc3c2c(=O)[nH]c(=O)n3C)c1
  1.06	2.21
- Cc1ccccc1OCCn1c(=N)n(Cc2ccccc2F)c2ccccc21
  0.799	-5.39
- CC(C)(C)c1nnc(NC(=O)c2cccc(Cl)c2)s1
  1.01	0.0582
- COc1ccc2c(c1)CCc1c(C(=O)NCc3ccc(Cl)cc3)noc1-2
  1.07	0.522
- O=C1CC2(CCCCC2)Oc2ccc(OCC(=O)N3CCOCC3)cc21
  1.04	0.802
- Cc1nc(SCC(=O)c2ccccc2F)c2c3c(sc2n1)CCCC3
  1.1	0.113
- CCCCNC(=O)c1cc2c(n(-c3ccc(C)cc3)c1=O)CC(C)(C)CC2=O
  0.976	-0.637
- Cc1c2c(nc3c(C(=O)NC4CCCC4)cnn13)CCCC2
  1.06	1.88
- CCc1ccc(NC(=O)[C@H](CSCc2ccccc2)N2Cc3ccccc3C2=O)cc1
  0.922	-1.77
- COc1ccc(N2CCN(C(=O)C(C)(C)Oc3ccc(Cl)cc3)CC2)cc1
  0.757	-4.98
- CCC(C)NC(=O)C1CC(c2cccc(OC)c2)=NO1 (stereo not given)
  1.04	0.48
- CCOc1ccc(NC(=O)c2nn(-c3ccccc3OC)c(=O)c3ccccc23)cc1
  0.988	-0.345
- O=C(Cn1ncc2ccsc2c1=O)NCCC1=CCCCC1
  1.09	2.71
- CCC(=O)N1CCc2cc(S(=O)(=O)Nc3cccc(C)c3)ccc21
  1.06	1.16
- COc1ccccc1NC(=O)CCNS(=O)(=O)c1ccc2c(c1)CCC(=O)N2
  1.08	1.47
- O=C(NCc1ccc(Cl)cc1)c1ccc2nc(-c3cccs3)c(-c3cccs3)nc2c1
  0.964	-0.0356
- Oc1ccc(-c2nc(-c3ccccc3)c(-c3ccccc3)[nH]2)cc1
  0.424*!	-0.573*!
- CCOc1ccc(-n2cc(-c3ccc(Br)cc3)[nH]c2=O)cc1
  0.927	-1.85
- O=C(Cn1nc(-c2ccccc2)ccc1=O)NCCCN1CCCCC1
  1.05	1.51
- CCCCNC(=O)c1ccc2c(c1)N(Cc1ccc(F)cc1Cl)C(=O)CS2
  1.13	2.01
- Cc1ccccc1Nc1c(-c2ccc(N3CCOCC3)cc2)nc2c(C)cccn12
  0.828	-1.65
- O=C(C1CCCN(Cc2ccncc2)C1)N1CCCCC1 (stereo not given)
  0.755	-2.91
- COc1ccc2cc(CCNC(=O)c3ccccc3Br)c(=O)[nH]c2c1
  0.959	-1.39
- COc1ccc2[nH]cc(CCNC(=O)Nc3cccc4ccccc34)c2c1
  0.987	-0.529
- COc1ccc(CCN2CC34C=CC(O3)C(C(=O)NCCc3ccccc3)C4C2=O)cc1OC (stereo not given)
  1.15	2.27
- Cc1onc(-c2ccccc2)c1C(=O)NC(C)C
  1.03	0.324
- COc1ccc(-c2nnc(N3CCCCC3)c3ccccc23)cc1
  0.983&1.06	-0.882&1.89
- O=S(=O)(c1ccccc1)c1nc(-c2cccs2)oc1SCc1ccccc1F
  0.906	-0.164
- CCOc1ccc(-c2cc(C(=O)O)c3cc(Br)ccc3n2)cc1
  0.976	-0.574
- CC(C)N(C)C1CCN(C(=O)Nc2ccc(Cl)cc2)CC1
  0.899	-1.09
- Fc1cccc(-c2nnc3ccc4cc(C(F)(F)F)ccc4n23)c1
  1.06	1.68
- COCCNC(=O)c1cc2c(n(-c3ccc(C)cc3)c1=O)CCCC2=O
  1	0.00832
- COc1ccc(-n2nc(C(=O)Nc3c(F)cccc3F)c3ccccc3c2=O)cc1
  0.983	-0.451
- COc1ccc(NC(=O)CN(c2ccc(C)cc2)S(=O)(=O)c2ccc(OC)cc2)cc1
  0.997	-0.0645
- O=C(CSc1nnnn1-c1ccccc1F)Nc1ccc(OC(F)(F)F)cc1
  0.985	-0.151
- CCc1ccc(NC(=O)c2cccc3c2C(=O)N(c2ccc(OC)cc2)C3)cc1
  0.733	-4.96
- O=c1c2cnn(-c3ccccc3)c2nc(-c2ccccc2)n1-c1cccc(Cl)c1
  0.925	-2.96
- Nc1cccc2c1C(=O)N(c1ccc(Cl)c(Cl)c1)C2=O
  1.02	0.528
- CC(C)Cn1c(CN2CCOCC2)nc2c1c(=O)[nH]c(=O)n2C
  1.07	2.61
- O=C(O)C1CCN(C(=O)c2sccc2-n2cccc2)CC1
  0.998	-0.0485
- CCOc1ccc(-n2nc(C(=O)NCCN(C)C)c3ccccc3c2=O)cc1
  0.925	-0.892
- CCOC(=O)c1sc2nc(Cc3ccccc3)nc(NCCCN3CCOCC3)c2c1C
  0.865	-0.135
- CCCCNC(=O)c1cnn2c(C)c(Cc3ccccc3C)c(C)nc12
  0.88	-3.31
- CCN(CCNC(=O)c1ccc2nc(N3CCC(C)CC3)sc2c1)c1ccccc1
  1.09	0.866
- CCN(CC)S(=O)(=O)c1ccc2c(c1)N(CC(=O)Nc1ccc(NC(C)=O)cc1)C(=O)CO2
  1.04	1.87
- CC(=O)N1CCc2cc(Br)cc(S(=O)(=O)N3CCN(c4ccc(C)cc4)C(C)C3)c21 (stereo not given)
  0.996	-0.0885
- Cc1oc(-c2ccc(Cl)cc2)nc1CN1CCC(C(=O)NCCCN2CCCC2)CC1
  1.81	6.84
- Cc1ccc(CCNC(=O)c2ccc(CNS(=O)(=O)c3ccc(Br)cc3)cc2)cc1
  0.914	-0.373

The results go on.
Fields – CBX7 AlphaScr	CBX7 AlphaScr z-score
- O=C(Cc1c(C(=O)O)[nH]c2ccc(Cl)cc12)NCc1ccc2c(c1)OCO2
  1.08	2.31
- COc1ccc(Cl)cc1C(=O)Nc1ccc2nc(N3CCN(c4ncccn4)CC3)cc(C)c2c1
  0.891	-0.737
- CCN(CC)S(=O)(=O)c1ccc2c(c1)N(CC(=O)NCCC(C)C)C(=O)CO2
  1.25	3.82
- O=C(CN1C(=O)CC(c2ccccc2)Sc2ccccc21)NCCc1ccccc1 (stereo not given)
  1.06	0.964
- NC(=O)CSc1ccc2nnc(-c3ccccc3)n2n1
  1.12	4.18
- COc1ccc2c(c1)c(=O)c(S(=O)(=O)c1ccc(C)cc1)cn2CC(=O)Nc1cccc(Cl)c1
  0.89	-1.55
- COc1ccc(-c2cc(C(=O)Nc3ccn(Cc4ccc(C)cc4)n3)no2)cc1
  1.37	2.14
- CCCc1nc2ccccc2n1CC(=O)O
  1.03	1.09
- COCCCNC(=O)c1sc2ncn(CC(=O)Nc3cccc(C(F)(F)F)c3)c(=O)c2c1C
  0.97	-0.911
- COc1ccccc1CC1CC(=O)N(c2ccc(Cl)c(Cl)c2)C1=O (stereo not given)
  0.978	-0.481
- CCC1Sc2ccccc2N(CC(=O)NCc2ccc(C)cc2)C1=O (stereo not given)
  1.04	1.53

Screening results as filed in PubChem BioAssay.

The list is partial; the hit share may differ from the screen's.
